Anthrax LT inh = anthrax lethal toxin internalization inhibition; Cells, anthrax lethal toxin internalization, FRET ratio (460/530); Potency, µM (titrated, usually from 40 µM), without a hit: top-dose activity change, negative = inhibition, actives largely listed as inhibitors; actives 0.67% (n = 70,000); active = well fitted falling ratio curve with the 530 nm signal flat; inconclusive = other ratio curves, or a change in one channel alone; inactive = flat curves in the ratio and both channels; the % refers to the ratio; further: on the % scale 0 is the no-effect control and ±100 the full control effect; nearly all actives have a fitted effect of over 50% in size; tested in ME-180 cells; beta-lactamase reporter
Prx2 Sm inh = Schistosoma mansoni Prx2 inhibition; S. mansoni Prx2 activity coupled to TGR/GSH (TGR is thioredoxin glutathione reductase), NADPH fluorescence loss, qHTS; some inactives read as strong as hits; Potency, µM; actives 0.07% (n = 65,000); active means full or partial inhibition curve with a strong effect at the top dose; inconclusive means weaker partial or single-point curve; inactive means no accepted curve; further: series up to 57 µM; many of its hits are not listed in these tables
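Coupled assay in which S. mansoni TGR passes NADPH reducing equivalents via glutathione to Prx2, which reduces H2O2. Compounds were preincubated 15 min at room temperature with 25 nM TGR/50 nM Prx2 mix. Kinetic NADPH fluorescence loss (ex 365/em 450 nm) was monitored.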
Numbers without * were called inactive; ? = inconclusive; nt = not tested or not shown; & = joins results of further samples; [ ] = another dose, or the depositor's remark. Potency means the concentration at half of the fitted maximal effect. A portion of the library; rates above refer to the full screens.

Structure,Anthrax LT inh,Prx2 Sm inh
C=CC1CC=CCC1 (stereo not given),-1%,nt
CCOc1ccc(C2/C(=C(\O)c3ccc(OC)c(OC)c3)C(=O)C(=O)N2c2cc(C)on2)cc1OC (stereo not given),4%,>57
COc1ncc2nc(-c3cn(C)c4ccccc34)c(=O)n(C[C@H]3CCCO3)c2n1,?,>57
Cn1c(=O)c2c(SC3CCCC3)nc(C3CC3)nc2n(C)c1=O,-11%,>57
Cc1ccc(CC(=O)N2CCC(c3nc4c(nnn4Cc4ccccc4)c(=O)[nH]3)CC2)cc1,?,>57
COc1ccc(OC)c(-c2cc(C(=O)Nc3c(C)nn(Cc4ccccc4Cl)c3C)no2)c1,4%,>57
CCOCC(=O)Nc1nnc(C)s1,-4%,>57
CCCn1c(-c2ccc(F)cc2)nc2c(NCCCCN(CC)CC)nc(C)nc21,?,nt
O=C(O)C(=Cc1ccnc2ccccc12)C(=O)O,-4%[8 µM],>57
CCCS(=O)(=O)N1CCCC(C(=O)NCc2cccnc2)C1 (stereo not given),-14%,>57
COc1cc(C2C(C#N)=C(N)Oc3cc(O)ccc32)cc2c1OCO2 (stereo not given),-6%,nt
CCOc1ccc(CCNC(=O)CN2CCN(Cc3ccc(F)cc3)C2=O)cc1OCC,-5%,>57
CCCOC(=O)Nc1nc2ccccc2o1,-1%,>57
C=CCNC(=O)c1cc(-c2ccc(Br)cc2)on1,-3%,>57
CCOC(=O)c1c(NC(=O)c2ccc(S(=O)(=O)N3CCOCC3)cc2)sc2c1CCN(C)C2,-20%,>57
NC(N)=NC(N)=Nc1ccccc1,-19%&3%,>57&>57

As entered above:
For Prx2 Sm inh, O=C(O)C(=Cc1ccnc2ccccc12)C(=O)O is listed with >57
For Prx2 Sm inh, NC(N)=NC(N)=Nc1ccccc1 is listed with >57&>57
For Prx2 Sm inh, CCOC(=O)c1c(NC(=O)c2ccc(S(=O)(=O)N3CCOCC3)cc2)sc2c1CCN(C)C2 is listed with >57
For Anthrax LT inh, COc1cc(C2C(C#N)=C(N)Oc3cc(O)ccc32)cc2c1OCO2 (stereo not given) is listed with -6%
For Anthrax LT inh, CCCS(=O)(=O)N1CCCC(C(=O)NCc2cccnc2)C1 (stereo not given) is listed with -14%
For Prx2 Sm inh, CCOc1ccc(CCNC(=O)CN2CCN(Cc3ccc(F)cc3)C2=O)cc1OCC is listed with >57

Next section
Structure,Anthrax LT inh,Prx2 Sm inh
Nc1cc(C(=O)c2cccs2)ccc1Cl,-18%,>57
COc1ccccc1N1C(=O)NC(=O)C2(Cc3cc(C)ccc3N(C)C2)C1=O (stereo not given),-8%,>57
COc1ccc(NC(=O)Nc2ccc(C)cc2OC(F)F)cc1OC,1%,>57
CCN1CCCC(OC(=O)Nc2ccccc2)C1 (stereo not given),?,>57
CN1CCn2c1nc(N1CCOCC1)nc2=O,nt,>57
Cc1ccc2c(c1)c1ncn(CCC3=CCCCC3)c(=O)c1n2C,-4%,>57
CC(C)C(c1nnnn1Cc1ccco1)N1CCN(c2nc3ccccc3s2)CC1 (stereo not given),-20%,>57
CC(C)Sc1nc2c(c(=O)n(C)c(=O)n2C)n1C,1%,>57
CCOC(=O)N1CCN(S(=O)(=O)c2cccc3cccnc23)CC1,17%,>57
COC(=O)N1CCC2(CC1)CCN(c1ncccn1)CC2,?,>57
Cc1ccc(-c2nnn(CC(=O)N(CC(=O)NC3CCCCC3)c3cnc4ccccc4c3)n2)o1,-13%,>57
CCc1c(C#N)c(SCc2c(C)noc2C)nc2c1C(=O)CC(C)(C)C2,?,>57
Cc1ccc(S(=O)(=O)NC2=NCCC2)cc1,0%,>57
CCN(c1cccc(C)c1)S(=O)(=O)c1ccc2[nH]c(=O)c(=O)[nH]c2c1,3%,>57
CC1(C)Cc2nc3sc4c(=O)n(CC(=O)NCc5ccco5)cnc4c3cc2CO1,3%,>57
COc1ccccc1NC(=O)CN1CCN(CC(=O)Nc2ccc3c(c2)OCCO3)CC1,0%,>57
CCOC(=O)c1ccccc1NC(=O)Cn1cnc2c(cnn2-c2ccc(F)cc2)c1=O,4%,>57
CN(C)CC#CCOCCOCCC#N,-1%,>57
CCOC(=O)c1ccccc1NC(=O)CSc1nc2ccccc2o1,-10%,>57
COc1cc(OC)nc(NC(=O)CSc2nc3ccccc3[nH]2)n1,-8%,>57
Nc1ccc(N2CCCCCC2)cc1,-23%,>57
NS(=O)(=O)c1ccc(N=Nc2c[nH]c(=O)c(O)c2)cc1,-2%[8 µM],>57
CCCCCC1CCC(C(=O)O)CC1 (stereo not given),13%,>57
Cc1cc(N2CCCC(C(=O)Nc3ccc4c(c3)CCC4)C2)n2ncnc2n1 (stereo not given),-6%,>57
CC1CCN(C(=O)CSc2nnc(-c3cccnc3)n2C2CCCCC2)CC1,-5%,>57
COc1ccc(Oc2ncc3nc(-c4ccccc4)c(=O)n(Cc4cccs4)c3n2)cc1,?,>57
O=C(CCSc1ccc(F)cc1)Nc1ccc(-n2cnnn2)cc1,-4%,>57
Cc1ccc(-n2ncc3c(=O)[nH]c(SCC(=O)N4CCOCC4)nc32)cc1,-14%,>57
Cc1ccc(NCN2C(=O)C3C4C=CC(C4)C3C2=O)cc1 (stereo not given),-7%,nt
COC(=O)c1cccc(OC(N)=O)c1,3%,>57
O=C(c1ccco1)N1CCC[C@@]2(CCN(c3cccc(-c4ccccc4)c3)C2)C1,?,>57
CC(=O)Nc1cc(C(=O)c2ccccc2)ccc1N1CCOCC1,-3%,>57
Cc1ccc2cc(C(c3nnnn3C(C)(C)C)N3CCCC3)c(=O)[nH]c2c1C (stereo not given),?,>57
COc1ccc2c(C)cc(C)nc2n1,3%[8 µM],>57
CC1(C)CC(=O)C2=C(C1)OC(/N=C/N1CCOCC1)=C(C#N)C2c1ccccc1 (stereo not given),?,>57
CC1(C)C(c2ccccc2)=NC(c2cccnc2)N1O (stereo not given),13%,>57
Cc1ccc(NC2c3ncccc3C(=O)N2C2CCCCC2)cc1 (stereo not given),-1%,>57
Cc1nc(Nc2nc(=O)c3ccccc3n2C)nc2c(C)cccc12,-8%,>57
Cc1ccc(-c2c3c(=O)n(C)c(=O)n(C)c3cn2-c2ccccc2O)cc1,10%,>57
CCOc1ccc(C(=O)CCN2CCCCC2)cc1,?,>57

Three structures from above, ordered by SMILES length, low to high:
Structure,Anthrax LT inh,Prx2 Sm inh
CC1(C)C(c2ccccc2)=NC(c2cccnc2)N1O (stereo not given),13%,>57
Cc1ccc(NC2c3ncccc3C(=O)N2C2CCCCC2)cc1 (stereo not given),-1%,>57
CC1(C)CC(=O)C2=C(C1)OC(/N=C/N1CCOCC1)=C(C#N)C2c1ccccc1 (stereo not given),?,>57

(list continues)
Structure,Anthrax LT inh,Prx2 Sm inh
COc1ccc(CCNC(=O)Cn2cnc3c2c(=O)n(C)c(=O)n3C)cc1OC,-3%,>57
CC1CCCCN1C(=O)CSc1nc2cc3c(cc2c(=O)n1Cc1ccc2c(c1)OCO2)OCO3 (stereo not given),8%,>57
O=C(C1CCC1)N1CCc2cc(S(=O)(=O)NCc3ccco3)ccc21,-1%,>57
CCCn1c(CNC(=O)c2ccccc2)nc2ccccc21,?,>57
CC1CCCCN1S(=O)(=O)c1ccc(NC(=O)c2cccs2)cc1 (stereo not given),?,nt
CCn1c(=O)c2cc(C(=O)NCCN3CCOCC3)sc2c2ccccc21,-9%,>57
C[C@H]1CC[C@H](C(=O)O)N[C@@H]1c1ccc(C#Cc2ccccc2)cc1,0%[1.6 µM],nt
CN1C(=O)c2ccc(C(=O)NC3CCCCC3)cc2C1=O,-1%,>57
CCn1c(=O)c(C(=O)Nc2cccnc2)c(O)c2ccccc21,-2%,>57
CCC(=O)Nc1ccc(N2CCN(Cc3ccccc3F)CC2)cc1,-14%,>57
CCn1c(SCC(=O)NCCc2ccccc2)nnc1-c1cccs1,?,>57
COc1ccc(S(=O)(=O)NCC2CCC(C(=O)N3CCC4(CC3)OCCO4)CC2)cc1 (stereo not given),13%,>57
CCCn1c(SCC(N)=O)nnc1-c1ccco1,5%,>57
CCOC(=O)c1c(N)sn(-c2ccccc2)c1=S,-4%,>57
O=C(O)CCC(=O)NCCn1c(-c2ccccc2)csc1=Nc1ccccc1,2%,>57
CS(=O)(=O)N1CCC(C(=O)Nc2cccc(C(F)(F)F)c2)CC1,?,>57
CC(=O)N1CC2(CC2)CC1c1ccccc1 (stereo not given),?,>57
O=C(CSc1nnnn1C1CCCCC1)NCc1ccc2c(c1)OCO2,13%,>57
COC(=O)c1cccc(Nc2nc3ccccc3nc2C)c1,?,nt
CCCN(c1ccc(OCC)cc1)c1ncnc2nc[nH]c12,5%,>57
COC(=O)c1ccccc1NC(=O)C12CCC(C)(C(=O)O1)C2(C)C (stereo not given),14%,>57
Cc1cc(C(=O)NC2CCCC2)on1,-3%,>57
Cc1noc(C)c1C(=O)N1CCC[C@@]2(CCN(CC(C)C)C2)C1,-3%,>57
CN1CC[C@H](CN2c3ccccc3Sc3ccccc32)C1,?,>57
CCCCCn1c(SCCC(C)C)nc2c1c(=O)[nH]c(=O)n2C,-5%,>57
COc1ccc(N2C(=O)CSC23C(=O)N2CCCc4cccc3c42)cc1 (stereo not given),-5%,>57
Cc1ccccc1C(=O)c1cccn1CC(=O)NCc1ccco1,5%,>57
CC1CC(C)(C)NC(=S)S1 (stereo not given),1%,>57
CC(=O)O[C@@H]1CC[C@]2(C)C(=C[C@@H]([C@@H]3C=C4C[C@@H](OC(C)=O)CC[C@]4(C)C4=C3[C@H]3C[C@@H]5O[C@@]6(CC[C@H](C)CO6)[C@@H](C)[C@@H]5[C@@]3(C)CC4)C3=C2CC[C@@]2(C)[C@H]4[C@@H](C)[C@]5(CC[C@H](C)CO5)O[C@@H]4C[C@H]32)C1,16%[8 µM],>57
CCOC(=O)c1ccc2c(c1)n(CCO)c(C)[n+]2CC,-1%,>57
CCN(CC)CCNC(=O)Cc1nn(CC)c(=O)c2ccccc12,1%,>57
CC(=O)Nc1ccc(OCC=C(Cl)Cl)cc1,-13%,nt
CCCCOc1ccc(OCCNS(=O)(=O)N(C)C)cc1,-10%,>57
CCN1C[C@]2(COC)CC[C@H](O)[C@@]34[C@@H]5C[C@H]6[C@@H](OC)[C@H]5[C@](O)(C[C@@H]6OC)[C@@](O)([C@@H](OC)[C@H]23)[C@@H]14,-4%[3.58 µM],>57
C/C(CCc1c[nH]c2ccccc12)=N\O,1%,>57
COc1ccc(CN2C(=O)CCC2(C)C(=O)NC2CCCCC2)c(OC)c1 (stereo not given),-2%,>57
CCOC(=O)c1sc2nccc(N(C)C)c2c1N=CN(C)C,?,nt
O=C(CCCn1c(=O)c2sccc2n(Cc2cc(=O)n3ccccc3n2)c1=O)NCc1ccco1,-5%,>57
Cc1ccc(C(=O)CSc2nnc(-c3ccco3)n2CC2CCCO2)cc1 (stereo not given),-9%,>57
CCOC(=O)C1CCN(Cc2nc3ccccc3c(=O)n2-c2ccc(OCC)cc2)CC1,-10%,>57
Cn1nc(-c2ccc(OCC(=O)Nc3cccnc3)cc2)c2ccccc2c1=O,-5%,>57
CCCCn1c(SCc2cc(=O)[nH]c3ccccc23)nc2c1c(=O)n(C)c(=O)n2C,-8%,>57
CC12CN(C(=O)c3ccccc3)C3(C#N)CC1CCC23C (stereo not given),14%,>57
O=C(C1CCCN(S(=O)(=O)c2cccc3nonc23)C1)N1CCC(Cc2ccccc2)CC1 (stereo not given),-4%,>57
COc1ccccc1NC(=O)c1ccccc1NS(=O)(=O)N1CCCC1,nt,>57
COc1ccc(OC)c(S(=O)(=O)NCc2cn3c(C)csc3n2)c1,-3%,>57
COc1ncc2nc(-c3ccc(Cl)cc3)c(=O)n(CCc3ccccc3)c2n1,-10%,>57
CCc1nc(SCC(=O)NCc2ccco2)c2c(=O)n(C)c(=O)n(C)c2n1,-3%,>57
CS(=O)(=O)Nc1cccc(-c2nccc(-n3ccnc3)n2)c1,-3%,>57
CC(C)c1nc(-c2c(N)n(C)c(=O)n(C)c2=O)sc1C(=O)C(C)(C)C,6%,>57
CCCCCCC(=O)NCC(=O)OCC(=O)c1ccccc1,-10%,>57
CC(=O)N1c2c(cc(Br)cc2S(=O)(=O)NCC2COc3ccccc3O2)CC1C (stereo not given),-17%,>57
COc1ccc(C2(C(=O)NCC3CCCO3)CCOCC2)cc1 (stereo not given),-5%,>57
COc1cccc(-c2noc(C3CCCN(C(=O)Cc4ccccc4)C3)n2)c1 (stereo not given),8%,>57
O=C(NCC1COc2ccccc2O1)c1ccc(NC(=O)C2CCCO2)cc1 (stereo not given),4%,>57
CN1C=CC(=C2C(=O)c3ccccc3C2=O)C=C1,15%,>57

(listing goes on)
Structure,Anthrax LT inh,Prx2 Sm inh
CCN(CC)S(=O)(=O)c1cccc(-c2nnc(SC(C)C(=O)NCCC3=CCCCC3)o2)c1 (stereo not given),1%,>57
COCCCNC(=O)CN(c1cccc(Cl)c1)S(C)(=O)=O,-4%,>57
COc1ccc(CN2C(=O)NC3(CCCCCC3)C2=O)cc1F,10%,>57
Cc1nnc(NCc2ccco2)c2ccccc12,8%,>57
CCCOc1ccc(/C(O)=C2/C(=O)C(=O)N(CCN(C)C)C2c2ccc(O)c(OC)c2)cc1 (stereo not given),-5%,>57

Screening data as filed in PubChem BioAssay.
